RN4220 kill: S. aureus RN4220 growth inhibition; AID 1259311; inhibition, % (test concentration not listed); OD600, 16 h; actives 0.33% (n = 330,000);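 active = z-score of -3 or lower and OD600 up to 0.18 on both plates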;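 note: plate controls were untreated cells for no effect and reference antibiotic for full effect; stock transfer was 100 nL into about 80 µL; one replicate is shown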
Mtb hypoxia rep: inhibitors of hypoxia-regulated fluorescent reporter in Mycobacterium tuberculosis | fluorescence inhibition, % (concentration not given with the values) | M. tuberculosis hypoxia-regulated fluorescent reporter, fluorescence | actives 0.1% (n = 300,000) | AID 1159583;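 active = 35 to 45% if threefold the growth effect, above 45% if 1.5-fold the growth effect; inactive = the rest, general growth blockers included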;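 note: wells of about 50 µL received 100 nL stock; 0% = vehicle wells and 100% = reference inhibitor wells; whole bacteria with a GFP reporter of the hypoxia response; strong numbers were not always called active; many hits fall short of the cut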
Bead autofluor: flagged as autofluorescent in microsphere protease counterscreen; compound autofluorescence counterscreen, microsphere flow cytometry; active compounds read high; fluorescence intensity (concentration not given with the values); actives 3.1% (n = 360,000); AID 624483;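 active = at least 3 SD above the mean of all compounds, about 16000 in these data; inconclusive = too few beads counted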;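 note: 100 nL of 1 mM stock went into each well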
Sa ugtP lethal: compounds lethal to S. aureus RN4220 ugtP deletion mutant | OD600 growth, 16 h; some inactives read as strong as hits | growth inhibition, % (test concentration not listed) | actives 0.54% (n = 330,000);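 active = z-score under -3 and OD600 up to 0.15 on both plates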;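 note: plate controls were untreated wells for no effect and antibiotic for full effect; wells of about 80 µL received 100 nL stock; the first replicate is given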
PrP UTR inh: inhibition of PrP 5' UTR reporter expression; cell-based PrP 5' UTR mRNA reporter, plate reader; inhibition, % (test concentration not listed); actives 0.35% (n = 340,000);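 active = every replicate at 50% or more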;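 note: 0 = median of the neutral control wells; tested in H4 reporter cells; numbers are from one replicate; inactives centre near -14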
BJeLR viability: kills HRASV12-expressing BJeLR cells. BJeLR (HRASV12) viability, CellTiter-Glo ATP luminescence, 48 h; reference of the scale not given here. inhibition, % (concentration not given with the values). actives 0.17% (n = 300,000). AID 1554;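 active = replicate mean above 50%; inconclusive = above 50% but judged a plate artefact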;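 note: 50 nL library stock added to about 25 µL; numbers are from one replicate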
Mtb hypoxia rep growth: also measured in Mtb hypoxia rep; calls as there; growth inhibition, %; measured here: M. tuberculosis growth (absorbance);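 0% = vehicle and 100% = reference antibiotic; read after six days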
Numbers without * were called inactive; ? = inconclusive; / = no result given; & = joins results of further samples.

cpd | molecule | RN4220 kill | Mtb hypoxia rep | Mtb hypoxia rep growth | Bead autofluor
1 | O=C(NN=C/C=C/c1ccco1)c1cnccn1 | 1.7 | 13 | 7 | /
2 | CCCCN(CCCC)CCNC(=O)CNC(=O)c1cccs1 | 6.3 | 11 | 6 | 21124*
3 | C/C(=N/N1CCN(c2ccccc2)CC1)c1cccc([N+](=O)[O-])c1 | / | / | / | 2143
4 | COc1ccc(C)cc1NC(=O)NCCC1=CCCCC1 | 7.6 | 5 | 3 | 21584*
5 | COc1cc(C2C3CN(C)CC=C3C(C#N)=C(N)C2(C#N)C#N)ccc1OC(C)C (stereo not given) | 21 | -1 | 7 | 9818
6 | CC1=C(C#N)C(c2ccc3ncccc3c2)C(C#N)=C(C)N1 | 3.2 | 3 | 9 | 7463
7 | Cc1cc(C)c(NC(=O)CSc2nc3ncc(Cl)cc3[nH]2)c(C)c1 | 5.4 | 3 | 1 | 4454
8 | NC(=O)Nc1ccc(C(=O)OCC(=O)N(Cc2ccccc2)C2CCS(=O)(=O)C2)cc1 (stereo not given) | -2.4 | 6 | 2 | 4461
9 | O=C(CSc1n[nH]c(=O)[nH]c1=O)Nc1ccccc1C(=O)c1ccccc1 | 1.2 | -2 | -5 | 4042
10 | CC(=NNC(=O)c1cccc([N+](=O)[O-])c1)c1cccnc1 | 0.9 | 12 | -5 | /
11 | Cc1nc2c(C)cccc2cc1C(=O)NN=Cc1cccc([N+](=O)[O-])c1 | 0.0 | 0 | 6 | /
12 | C=CCn1c(SCC(=O)Nc2ccccc2F)nc2ccccc2c1=O | 1.2 | 1 | 3 | 3440

cpd | Sa ugtP lethal | PrP UTR inh | BJeLR viability
1 | 14 | / | /
2 | -3 | -21 | 6
3 | / | -34 | -3
4 | 3 | -1 | 6
5 | -7 | 1 | -4
6 | -2 | 1 | -11
7 | 1 | -2 | -12
8 | 7 | -34 | -3
9 | 6 | -17 | 10
10 | 5 | / | /
11 | 7 | / | /
12 | 6 | -28 | -8

Later entries:
cpd | molecule | RN4220 kill | Mtb hypoxia rep | Mtb hypoxia rep growth | Bead autofluor
13 | CC(=O)c1cccc(NC(=O)N2C3CCC2CC(NC(=O)C2CC2)C3)c1 (stereo not given) | 1.4 | 13 | -3 | 2408
14 | Cc1ccc(Sc2ncccc2C(=O)NCC(c2ccc(F)cc2)N2CCOCC2)cc1C (stereo not given) | 6.1 | 6 | 4 | 5570
15 | Cc1ccccc1C(=O)Nc1nnc(SCC(=O)NC2CC2)s1 | 1.5 | -5 | -1 | 5359
16 | COC(=O)c1ccccc1C(=O)N1CCOCCOCCOCC1 | 4.6 | 4 | 1 | 2045
17 | O=C(CNc1cc(S(=O)(=O)N2CCOCC2)ccc1N1CCCC1)Nc1ccc(Cl)cc1 | -3.3 | 4 | 2 | ?
18 | C[C@H](NC(=O)c1ccc2c(c1)OCO2)c1nnc2ccccn12 | 3.5 | 0 | 1 | 5744
19 | CS(=O)(=O)Nc1ccc(C(=O)Nc2ccccc2C(=O)NCc2ccco2)cc1 | 3.4 | 6 | 8 | 5635
20 | CC1(C)CC(=O)C(C2=NC3(CCCCCC3)Cc3ccccc32)=C(O)C1 | 1.0 | 6 | -4 | 6013
21 | O=C(NCc1ccccn1)C1CCCN(S(=O)(=O)c2ccccc2)C1 (stereo not given) | 3.5 | -5 | -1 | 9798
22 | CCOC(=O)CCCNC(=O)CN1C(=O)NC2(CCCCCC2)C1=O | 3.7 | 5 | 5 | 11215
23 | COc1ccc(CNC(=O)C(C)NCc2ccccc2Cl)cc1 (stereo not given) | 2.5 | 9 | 16 | 4219
24 | C#CCOCCOCCOCCNc1nc(N2CCN(C(=O)[C@H](CO)n3cc([C@@H](N)C(C)C)nn3)CC2)nc(N2CCN(C(=O)[C@H](CCC(=O)O)n3cc([C@@H](N)CCCCN)nn3)CC2)n1 | 3.0 | -8 | 5 | 4000

cpd | Sa ugtP lethal | PrP UTR inh | BJeLR viability
13 | 0 | -11 | 2
14 | 3 | -7 | 0
15 | 13 | -42 | 6
16 | 2 | -18 | 2
17 | -7 | -13 | /
18 | 5 | -3 | 1
19 | 5 | -24 | 1
20 | 0 | -5 | 3
21 | 1 | -14 | 5
22 | -1 | -19 | -5
23 | 16 | -13 | -1
24 | 0 | -8 | /

New compounds follow
cpd | molecule | RN4220 kill | Mtb hypoxia rep | Mtb hypoxia rep growth | Bead autofluor
25 | O=C(NC1CC1)c1ccc(N2CCCCC2)c([N+](=O)[O-])c1 | 0.5 | -5 | 0 | 4352
26 | Cc1ccc(F)cc1NC(=O)CSCc1c(C)noc1C | 3.5 | 10 | 5 | 3925
27 | C=CCn1cnc2sc(C(=O)Nc3ccccc3OC)c(C)c2c1=O | -1.8 | 2 | 3 | 2647
28 | C/C(=N/Nc1ncc(Br)cn1)c1ccc(Br)cc1 | / | / | / | 3651
29 | CCCCC(c1nnnn1CCOC)N1CCN(C)CC1 (stereo not given) | 3.9 | / | / | 4091
30 | Cc1[nH]c2ccccc2c1-c1nc2ccccc2[nH]1 | 9.2 | 6 | 0 | 3490
31 | CCOC(=O)Cn1c(-c2ccccc2)nc2ccccc2c1=O | 1.2 | 5 | 0 | 8184
32 | CC(=O)c1ccc(NC(=O)Cn2nc(C)cc2C)cc1 | 1.2 | 9 | 6 | 9597
33 | Cc1c(C#N)c(N)nc2c3c(sc12)NC(=O)CC3c1ccc(F)cc1 (stereo not given) | -0.9 | 4 | 8 | 9584
34 | O=[N+]([O-])c1ccc(N2CCN(C(=S)Nc3ccccc3)CC2)cc1 | / | / | / | 3943
35 | COc1ccc(C(=O)NN=Cc2ccc(OC)c(COc3ccc(F)cc3F)c2)cc1 | -2.9 | 4 | 5 | /
36 | COc1ccc2c(c1)c(CC(=O)Nc1ccccc1OC)c(C)n2C(=O)c1ccc(Cl)cc1 | -3.3 | 13 | 7 | 2041

cpd | Sa ugtP lethal | PrP UTR inh | BJeLR viability
25 | 0 | -33 | 10
26 | 2 | -11 | /
27 | 13 | -19 | 7
28 | / | -27 | -5
29 | 2 | -8 | 7
30 | -1 | -7 | 2
31 | 43 | -16 | -6
32 | 3 | -23 | -5
33 | -5 | 7 | -9
34 | / | 2 | 9
35 | -18 | / | /
36 | 4 | 1 | -6

Next compounds follow:
cpd | molecule | RN4220 kill | Mtb hypoxia rep | Mtb hypoxia rep growth | Bead autofluor
37 | CCC1C(=O)N=C(SCC(=O)Nc2cccc3ccccc23)NC1=O (stereo not given) | 1.0 | -3 | 6 | 10345
38 | Cc1ccc(-n2c(O)c(/C=N/n3cnnc3)c3ccccc3c2=O)cc1 | 1.2&-0.9 | 6&-3 | 3&3 | 7384&8404
39 | CC(C)Nc1nnc(Sc2ccc(Cl)cc2[N+](=O)[O-])s1 | 4.5 | -4 | 4 | 2522
40 | CC(=O)Nc1ccc(SCc2csc(C)n2)cc1 | 1.0 | 1 | -4 | 7442
41 | COc1ccc2cc(C(=O)C3CCCN(C(=O)CCc4ccccn4)C3)ccc2c1 (stereo not given) | 9.7 | 9 | -19 | 4589
42 | COc1ccc(-c2cc(C(F)(F)F)nc(SCC(=O)Nc3ccc4c(c3)OCO4)n2)cc1OC | 5.2 | 2 | 2 | 7473
43 | CCCCN(CC)S(=O)(=O)c1ccc2c(c1)n(C)c(=O)c(=O)n2C | 5.2 | 0 | -3 | 4364
44 | CC(=O)c1ccc(-n2c(CCC(=O)O)ccc2-c2ccc(Cl)cc2)cc1 | 16 | -2 | 3 | 3483
45 | Cc1ccccc1C(=O)NC(=S)Nc1ccc2[nH]c(=O)[nH]c2c1 | 0.5 | 5 | 9 | 2099
46 | CSc1ccccc1OCc1cc(C(=O)N(C)CCn2nc(C)cc2C)no1 | 7.2 | 5 | 1 | 4649
47 | CCCCCn1c(N2CCCC2)nc2c1c(=O)n(C)c(=O)n2C | 1.0 | 3 | -1 | 4445
48 | CCOC(=O)C1=C(N)n2c(s/c(=C\c3cccs3)c2=O)=C(C(=O)OCC)C1c1cccs1 (stereo not given) | / | / | / | 2329

cpd | Sa ugtP lethal | PrP UTR inh | BJeLR viability
37 | -3 | -6 | 7
38 | 6&-3 | -1&-4 | 13&2
39 | -18 | 6 | -3
40 | -5 | -8 | -1
41 | 7 | -22 | 4
42 | 0 | -22 | 1
43 | -6 | -16 | 3
44 | 1 | -22 | 3
45 | 0 | -16 | 3
46 | 8 | -7 | -4
47 | 5 | -19 | -3
48 | / | -21 | -9

Additional records follow:
cpd | molecule | RN4220 kill | Mtb hypoxia rep | Mtb hypoxia rep growth | Bead autofluor
49 | C1CCc2nnc(-c3nnc4n3CCCCC4)n2CC1 | -10 | 12 | 9 | 2459
50 | CC(=O)C1=C(O)C(=O)N(c2ccc(Br)cn2)C1c1ccc(Br)cc1 (stereo not given) | 6.8 | -6 | -7 | 3846
51 | O=C(NCCCN1CCOCC1)c1cc2c([nH]c3ccccc32)c(-c2cccc(Br)c2)n1 | 2.0 | / | / | 4064
52 | Cn1c(N)c(C(=O)COC(=O)CCCc2c[nH]c3ccccc23)c(=O)n(C)c1=O | 9.9 | 4 | -4 | 3078
53 | O=C(NCc1ccccc1)c1ccc(Cl)c(NC2=NC3CS(=O)(=O)CC3S2)c1 (stereo not given) | 5.6 | 5 | 1 | 4361
54 | COc1cc(NC(=O)COc2ccccc2C)ccc1NC(=O)c1ccco1 | 4.4 | 8 | 6 | 4992
55 | Cc1ccccc1Nc1scc(-c2ccc(Br)cc2)[n+]1-c1ccccc1C | -14 | 11 | 12 | 2228
56 | COc1cccc(C=NN2CCN(c3ccc(Cl)cc3)CC2)c1OC | 5.4 | 7 | 1 | /
57 | O=C(Cc1n[nH]c(=O)c2ccccc12)OCC(=O)c1ccc(OC(F)F)cc1OC(F)F | -2.6 | 0 | -4 | 5769
58 | CCOc1ccc(Br)cc1CNc1ccc2c(c1)OCCO2 | 54 | -8 | 2 | 3224
59 | CCOc1nc(C)ccc1-c1noc(-c2ccco2)n1 | 2.0 | -2 | -1 | 20107*
60 | COCC(C)NC(=O)/C(=C/c1ccccc1)c1ccccc1 (stereo not given) | / | / | / | 2216

cpd | Sa ugtP lethal | PrP UTR inh | BJeLR viability
49 | 6 | -17 | -5
50 | 4 | -40 | 13
51 | 3 | -2 | 1
52 | -2 | 3 | 3
53 | 3 | -4 | -3
54 | -8 | -29 | -1
55 | 72 | -17 | 0
56 | 13 | / | /
57 | 2 | -8 | -2
58 | 6 | -4 | -3
59 | 4 | -43 | -6
60 | / | -13 | -1

An excerpt from above in order of heavy-atom count, ascending.
cpd | molecule | RN4220 kill | Mtb hypoxia rep | Mtb hypoxia rep growth | Bead autofluor
49 | C1CCc2nnc(-c3nnc4n3CCCCC4)n2CC1 | -10 | 12 | 9 | 2459
50 | CC(=O)C1=C(O)C(=O)N(c2ccc(Br)cn2)C1c1ccc(Br)cc1 (stereo not given) | 6.8 | -6 | -7 | 3846
54 | COc1cc(NC(=O)COc2ccccc2C)ccc1NC(=O)c1ccco1 | 4.4 | 8 | 6 | 4992
51 | O=C(NCCCN1CCOCC1)c1cc2c([nH]c3ccccc32)c(-c2cccc(Br)c2)n1 | 2.0 | / | / | 4064

cpd | Sa ugtP lethal | PrP UTR inh | BJeLR viability
49 | 6 | -17 | -5
50 | 4 | -40 | 13
54 | -8 | -29 | -1
51 | 3 | -2 | 1

More entries follow:
cpd | molecule | RN4220 kill | Mtb hypoxia rep | Mtb hypoxia rep growth | Bead autofluor
61 | COC(=O)C1=CN(Cc2ccc(OC)c(OC)c2)C=C(C(=O)OC)C1c1ccc(F)cc1 | / | / | / | 3912
62 | COc1ccc(N=Cc2c(O)[nH]c3ccccc23)cc1 | 11 | 15 | 23 | 4133
63 | COc1ccc(CC(NC(C)=O)C(=O)NC2CCN(c3c(Cc4ccccc4)c(C)nc4ncnn34)CC2)c(OC)c1 (stereo not given) | 2.4 | -2 | 5 | 4504
64 | Cc1onc(-c2ccccc2Cl)c1C(=O)NC(=S)Nc1ccccc1C(N)=O | 5.0 | -3 | -1 | 2328
65 | CCOC(=O)C1(CCc2ccccc2)CCN(Cc2csc(C(C)=O)c2)CC1 | 5.0 | -2 | 7 | 3427
66 | Nc1ncnc2c1ncn2[C@@H]1O[C@H](COP(=O)(O)O)[C@@H](O)[C@H]1O | / | / | / | 5509
67 | COc1cc2ccccc2cc1C(=O)OCc1nc2ccsc2c(=O)[nH]1 | 7.1 | 1 | -3 | 4143
68 | Nc1ncnc2c1ncn2CCNCCc1ccccc1 | 4.5 | / | / | 3529

cpd | Sa ugtP lethal | PrP UTR inh | BJeLR viability
61 | / | -13 | 4
62 | -17 | -90 | 7
63 | 1 | 9 | -7
64 | -4 | -21 | -5
65 | 9 | -16 | -12
66 | / | 1 | -4
67 | 8 | -19 | /
68 | 10 | -2 | -2
